Compound activity deposited in PubChem BioAssay by The Scripps Research Institute Molecular Screening Center.
OX1R antag-1 – antagonists of human orexin 1 receptor (OX1R); Orexin/Hypocretin receptor type 1 (Homo sapiens), O43613; OX1R-expressing cells, FRET antagonist read-out; inhibition, % at 6.6 µM; 330,000 tested, 1.8% active; AID 485270, 2010; in the data active = inhibition mostly above about 38%, no sharp cut-off; inactive = mostly below about 40%;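 note: 0% = agonist challenge alone and 100% = reference antagonist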
Target sequence (O43613 whole entry, looked up): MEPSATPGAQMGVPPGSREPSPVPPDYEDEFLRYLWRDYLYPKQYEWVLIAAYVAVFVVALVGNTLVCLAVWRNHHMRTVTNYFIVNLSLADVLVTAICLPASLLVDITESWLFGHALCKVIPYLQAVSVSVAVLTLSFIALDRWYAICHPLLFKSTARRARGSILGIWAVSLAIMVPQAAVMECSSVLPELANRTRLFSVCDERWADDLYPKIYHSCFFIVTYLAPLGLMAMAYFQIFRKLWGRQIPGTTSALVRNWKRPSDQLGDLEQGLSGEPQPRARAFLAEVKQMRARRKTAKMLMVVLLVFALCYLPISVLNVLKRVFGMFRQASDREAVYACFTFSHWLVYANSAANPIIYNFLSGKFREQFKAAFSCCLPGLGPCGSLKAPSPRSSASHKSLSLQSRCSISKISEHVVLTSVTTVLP
OX1R antag-2 – OX1R (HCRTR1) antagonists, primary screen, fluorescence, CHO/OX1R cells, Fluo-8 calcium, orexin A | Orexin/Hypocretin receptor type 1 (Homo sapiens), O43613 | Fluo-8 calcium fluorescence | inhibition, % at 5 µM | 330,000 tested, 0.43% active | AID 434989, 2010;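 active = inhibition above its plate's threshold, mean inhibition of all tested compounds on the plate plus 3 SD, cut at about 37% in these data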;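 note: 0% = orexin A challenge wells and 100% = SB-334867-A antagonist wells; not every result past the cut was called active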
* marks the source's active call; other numbers are inactive results. These rows are one share of the data; most or all hits stand in other tables.

SMILES | OX1R antag-1 | OX1R antag-2
CCCC(=O)Nc1nc(C)c(-c2csc(Nc3ccc(Cl)cc3)n2)s1 | 24.6 | -35.8
C/C(=N/Oc1nc(C)cc(C)n1)c1ccc(Br)cc1 | 36.6 | -17.8
COc1ccccc1CNC(=O)c1cc(C(C)C)nc2ccccc12 | 12.1 | -18.6
O=C(CN1C(=O)c2ccccc2S1(=O)=O)NCCSCc1c(F)cccc1Cl | 17.2 | -17.6
CC(C)C(=O)Nc1ccc(NC(=O)c2cccc(F)c2)cn1 | 38.6 | -3.0
CC(=O)Oc1cccc(C(=O)Nc2c[nH]c(=O)[nH]c2=O)c1 | 17.1 | 1.4
O=C(NC1CC1)C1CCN(C2CCN(C(=O)CSc3ccccc3)CC2)CC1 | 4.7 | 0.5
COc1ccc2[nH]c(C)c(CCNC(=S)Nc3cccc(C)c3C)c2c1 | 15.2 | -29.9
Cc1ccc(Nc2nc(N)c([N+](=O)[O-])c(NCCO)n2)cc1C | 19.4 | -34.9
COc1ccc(CN(CC(=O)NC2CCCC2)C(=O)c2onc(C(N)=O)c2N)cc1 | 26.7 | -29.3
Cc1c(C(=O)N(C)Cc2cccc(F)c2)oc2c(Cl)cccc12 | 28.8 | -29.2
COC(=O)c1cc(OC)c(OC)cc1NC(=O)CSc1nnc(-c2cccnc2)n1C | 7.8 | -12.1
O=C(C1CCCN(Cc2cc(Br)ccc2O)C1)N1CCCCC1 (stereo not given) | -7.3 | -23.9
C/C(=N\NC(=O)c1ccccc1Cl)c1ccccn1 | 5.0 | -15.1
CCOC(=O)c1cc(CC)sc1NC(=O)c1ccc([N+](=O)[O-])c(N2CCOCC2)c1 | 25.9 | -8.5
CCCC(=O)c1cn(CC(=O)OC)c2ccccc12 | 8.5 | -23.9
CCOc1cc(/C=C\c2nc(O)c([N+](=O)[O-])c(=O)[nH]2)ccc1OC(C)CC (stereo not given) | 1.6 | -7.6
O=C(c1ccccc1)c1c(O)cc(-c2ccccc2)oc1=O | 9.5 | 4.6
COc1ccc(C2C(C(C)=O)=C(O)C(=O)N2CCc2c[nH]c3ccccc23)cc1 (stereo not given) | 6.8 | 14.8
COc1cccc(CN(C)C(=O)CNC(=O)c2cccs2)c1OC | 13.5 | -25.9
COc1ccc(S(=O)(=O)N2CCOCC2)cc1NC(=O)C1CCCN1C(=O)c1cccs1 (stereo not given) | 8.8 | -24.9
CC(=O)N1CCN(c2ccccc2NC(=O)c2ccc(C#N)cc2F)CC1 | 28.6 | -15.9
Cc1cc(C(=O)N2CC=C(c3ccccc3)CC2)c2ccccc2n1 | 12.4 | -7.8
Cc1[nH]c(=O)[nH]c(=O)c1/C=C/C(=O)O | 17.4 | 2.7
CC(C)NC(=O)c1onc(CSc2ccc(F)c(F)c2)c1C(=O)NC(C)C | 13.3 | -22.4
CSCCOC(=O)COc1ccc(/C=N/NC(=O)c2nn(C)cc2Cl)cc1 | 12.3 | 4.6
O=C1Nc2ccccc2C12OCC1(CO2)COC2(OC1)C(=O)Nc1ccccc12 (stereo not given) | 7.7 | -28.6
CCN(CCS(=O)(=O)c1ccc(Cl)cc1)C(=O)Nc1ccc(Cl)cc1 | 5.0 | -22.6
Clc1ccc(-n2nnnc2-c2cnc3ccccc3c2-c2ccccc2)cc1 | 15.2 | -39.2
Cc1cc(C)nc(N/N=C/c2ccc3c(c2)OCCO3)n1 | 11.9 | -27.7
COC(=O)c1c(C)oc2ccc(OC(=O)N3CCOCC3)cc12 | 15.6 | -32.8
CN(C)c1ncc(C2=C(Cl)C(=O)C(N3CCCC3)=C(Cl)C2=O)s1 | 18.3 | -18.9
Cn1c(/C=N/c2nc3ccccc3[nH]2)nc2ccccc21 | 21.5 | -7.1
N#CCCn1cc(C(=O)Nc2ccc(C(=O)O)cc2)c(-c2cccs2)n1 | 20.2 | 0.0
O=C(c1ccc(N2CCCC2)c([N+](=O)[O-])c1)N1CCN(CCO)CC1 | 14.9 | -2.0
CCN(CC)c1ccc(/C=N/NC(=O)c2cc3ccccc3[nH]2)cc1 | 17.2 | -5.1

The final two compounds of the section above come first, to join the parts:
SMILES | OX1R antag-1 | OX1R antag-2
O=C(c1ccc(N2CCCC2)c([N+](=O)[O-])c1)N1CCN(CCO)CC1 | 14.9 | -2.0
CCN(CC)c1ccc(/C=N/NC(=O)c2cc3ccccc3[nH]2)cc1 | 17.2 | -5.1
CCCCn1c(N)c(N(CCOC)C(=O)c2cc(-c3ccccc3)nc3ccccc23)c(=O)[nH]c1=O | 19.6 | -18.1
O=C(CN1CCN(c2ccc(F)cc2)CC1)Nc1nnc(-c2ccccc2)s1 | 19.7 | -15.5
COc1ccc(C(C(=O)NC2CCCCC2)N(C(=O)CCl)c2ccc(OC)cc2)cc1 (stereo not given) | 33.7 | -32.2
CCC(CC)C(=O)Nc1c(C(=O)N2CCN(c3ccccc3)CC2)oc2ccccc12 | 10.6 | -24.4
CC(=O)Nc1cccc(NC(=O)C2CC(=O)N(C3CCCCC3)C2)c1 (stereo not given) | 14.7 | 3.4
CS(=O)(=O)N1CCC(Oc2ccccc2C(=O)NC2CCOC2)CC1 (stereo not given) | 3.6 | -2.5
CN(C)c1nc(N)nc(-c2ccco2)n1 | 21.0 | -26.8
S=C(c1ccc(-c2cc(Cl)ccc2Cl)o1)N1CCOCC1 | 22.5 | -14.1
O=c1[nH]c(CCl)nc2cc(-c3ccc(Cl)cc3)sc12 | 37.3 | 4.7
Cc1cccc(C(=O)N=c2sccn2C)c1[N+](=O)[O-] | 41.1 | -9.5
CCOc1ccc(/C(O)=C2/C(=O)C(=O)N(c3ncccn3)C2c2ccccc2)cc1 (stereo not given) | 16.7 | -8.8
Cc1ccc(-c2cc(C(F)F)nc(N3CCC(C)CC3)n2)cc1 | 9.1 | -20.2
CCCS(=O)(=O)NCc1cn2cccc(C)c2n1 | 9.4 | -12.8
COc1ccc(C(=O)N(CN2CCCC2=O)c2cc(C)on2)cc1OC | 18.1 | -13.1
O=C(NC1CCCCC1)C(c1ccncc1)N(C(=O)Cn1nnc(-c2cccs2)n1)C1CCCC1 (stereo not given) | 16.3 | -6.4
Cc1nc([N+](=O)[O-])c(Br)n1CC(=O)c1ccc(Br)cc1 | 37.7 | -1.8
COc1ccc(OCC(=O)NNC(=O)c2ccc(-c3ccccc3)cc2)cc1 | 24.6 | -8.7
O=C(c1cc(-c2cccc(Cl)c2)on1)N1CCc2ccccc2C1 | 13.8 | 8.1
Cc1nc(C)c(-c2ccccc2)c(=O)[nH]1 | 21.4 | -17.1
O=C(C1CCC1)N1CCc2cc(S(=O)(=O)NC3CCCC3)ccc21 | 9.4 | -18.5
O=C(NCc1nnc(SCC(=O)N2CCCc3ccccc32)o1)c1ccco1 | 6.9 | -19.8
CCN(CCCn1c(SCC#N)nc2ccccc2c1=O)c1ccccc1 | 20.5 | -8.2
Cc1ccc(N2CC(C)Cn3c2nc2c3c(=O)[nH]c(=O)n2C)cc1C (stereo not given) | -4.6 | -15.7
O=C(CN1C(=O)C2CC=CCC2C1=O)Nc1ccc(Br)cc1 (stereo not given) | 13.3 | -3.9
O=C(/C=C/c1ccc2c(c1)OCCO2)c1ccccc1 | 10.7 | -18.8
CC1(C)Cc2c(cnn2-c2ccccc2)C(NC(=O)CCN2CCCCO2)C1 (stereo not given) | 14.1 | -21.5
CCCN(CCC)CCCNC(=O)c1cc2cc3ccc(Cl)cc3nc2o1 | 19.1 | -18.2
Cn1c(CN2CCCCC2)nc2cc(NC(=O)c3cccc(Br)c3)ccc21 | 3.8 | -19.7
O=C(N/N=C/c1cccc(O)c1)c1ccc2c(c1)OCCO2 | 20.8 | 0.7
Cc1ccc(S(=O)(=O)N2CCN(S(C)(=O)=O)CC2)cc1 | 4.6 | 2.1
COc1ccccc1CNC(=O)CSc1nc(=O)n(Cc2ccncc2)c2c1CCC2 | 1.1 | -3.8
CCCOc1ccc(N2CC(C(=O)Nc3ncccc3C)CC2=O)cc1 (stereo not given) | 20.7 | -14.3
CCOC(=O)C(=O)Nc1ccccc1C(N)=O | -0.8 | 2.9
CCOC(=O)CNS(=O)(=O)c1ccc(C(=O)O)cc1 | 22.1 | -11.7
COc1ccc(C2N(C(C)=O)CCN2S(=O)(=O)c2ccc(C)cc2)cc1 (stereo not given) | 19.4 | -1.3
O=C1/C(=C/c2cccs2)CCC1C1CCCC1 (stereo not given) | 0.3 | -6.1
COc1ccc(NC(=O)CS(=O)CC(=O)Nc2ccc(NC(C)=O)cc2)cc1 (stereo not given) | 1.6 | -2.8
COc1ccc(CCN/C=C2/CC(=O)NC2=O)cc1OC | 22.9 | -22.1
Cc1ccccc1-c1ncc(CN2CCN(C3CCCCC3)C(CCO)C2)cn1 (stereo not given) | 9.9 | -1.4
NNC(=O)C1=NOC(CNc2ncc(C(F)(F)F)cc2Cl)C1 (stereo not given) | 10.7 | -28.6
[O-]/[N+](=C/c1ccco1)c1ccccc1 | 2.1 | -11.6
COc1ccccc1C(CC(=O)Nc1ccc(C)c(C)c1)c1ccc(OC(C)C)cc1 (stereo not given) | 21.4 | -21.2
Cc1nc2ncnn2c(Nc2ccc3c(c2)OCCO3)c1C | 12.2 | -8.1
CCCCN(C)C1=Nc2cccc3cccc1c23 | 38.1 | -12.6
C=CCn1c(SCc2cc(=O)n3ccsc3n2)nc2sc(C)c(C)c2c1=O | 17.2 | -1.5
CSc1ncccc1C(=O)OCC(=O)Nc1cc(C(F)(F)F)ccc1N1CCOCC1 | 29.0 | 1.3
CN1CCC23c4ccccc4NC1C21CCN(C)C3Nc2ccccc21 | 6.0 | 2.2
COc1ccc(C[C@H]2c3cc(O)c(OC)cc3CC[N+]2(C)[O-])cc1O (stereo not given in full) | 35.2 | -27.8

21 compounds from above, ordered by length of the SMILES, low to high.
SMILES | OX1R antag-1 | OX1R antag-2
O=C1/C(=C/c2cccs2)CCC1C1CCCC1 (stereo not given) | 0.3 | -6.1
Cc1nc(C)c(-c2ccccc2)c(=O)[nH]1 | 21.4 | -17.1
CCCC(=O)c1cn(CC(=O)OC)c2ccccc12 | 8.5 | -23.9
Cc1[nH]c(=O)[nH]c(=O)c1/C=C/C(=O)O | 17.4 | 2.7
C/C(=N/Oc1nc(C)cc(C)n1)c1ccc(Br)cc1 | 36.6 | -17.8
Cc1cc(C)nc(N/N=C/c2ccc3c(c2)OCCO3)n1 | 11.9 | -27.7
S=C(c1ccc(-c2cc(Cl)ccc2Cl)o1)N1CCOCC1 | 22.5 | -14.1
COc1ccccc1CNC(=O)c1cc(C(C)C)nc2ccccc12 | 12.1 | -18.6
O=C(CN1C(=O)C2CC=CCC2C1=O)Nc1ccc(Br)cc1 (stereo not given) | 13.3 | -3.9
CCCOc1ccc(N2CC(C(=O)Nc3ncccc3C)CC2=O)cc1 (stereo not given) | 20.7 | -14.3
O=C(c1cc(-c2cccc(Cl)c2)on1)N1CCc2ccccc2C1 | 13.8 | 8.1
O=C(C1CCC1)N1CCc2cc(S(=O)(=O)NC3CCCC3)ccc21 | 9.4 | -18.5
O=C(NCc1nnc(SCC(=O)N2CCCc3ccccc32)o1)c1ccco1 | 6.9 | -19.8
Cn1c(CN2CCCCC2)nc2cc(NC(=O)c3cccc(Br)c3)ccc21 | 3.8 | -19.7
O=C(CN1CCN(c2ccc(F)cc2)CC1)Nc1nnc(-c2ccccc2)s1 | 19.7 | -15.5
O=C(CN1C(=O)c2ccccc2S1(=O)=O)NCCSCc1c(F)cccc1Cl | 17.2 | -17.6
CSc1ncccc1C(=O)OCC(=O)Nc1cc(C(F)(F)F)ccc1N1CCOCC1 | 29.0 | 1.3
COc1ccccc1C(CC(=O)Nc1ccc(C)c(C)c1)c1ccc(OC(C)C)cc1 (stereo not given) | 21.4 | -21.2
CCOc1cc(/C=C\c2nc(O)c([N+](=O)[O-])c(=O)[nH]2)ccc1OC(C)CC (stereo not given) | 1.6 | -7.6
O=C(NC1CCCCC1)C(c1ccncc1)N(C(=O)Cn1nnc(-c2cccs2)n1)C1CCCC1 (stereo not given) | 16.3 | -6.4
CCCCn1c(N)c(N(CCOC)C(=O)c2cc(-c3ccccc3)nc3ccccc23)c(=O)[nH]c1=O | 19.6 | -18.1

Later entries
SMILES | OX1R antag-1 | OX1R antag-2
CCCc1cc(C(=O)NCCc2ccc(OC)c(OC)c2)no1 | 9.6 | -14.3
CCN1CCN(CCCCOc2ccccc2F)CC1 | 2.6 | 9.8
Cc1ncc(CSc2nc3ccccc3[nH]2)c(N)n1 | 4.0 | -2.8
CC(O)C(NS(=O)(=O)c1ccc(Cl)cc1)C(=O)OCc1cc([N+](=O)[O-])cc2c1OCOC2 (stereo not given) | 21.9 | 1.3
O=C(N/N=C1\CCSC1)c1cc(Cl)ccc1O | 43.2 | -25.1
NC1=NC[C@H](Cc2ccc(O)cc2)N1CCC12CC3CC(CC(C3)C1)C2 | 13.2 | -2.4
Cc1ccc(S(=O)(=O)N(C)c2ccc(C(=O)Nc3ccccn3)cc2)cc1 | 20.5 | -24.3
Cc1cccc2cc(CN(CCN3CCCC3)C(=O)NC3CCCCC3)c(=O)[nH]c12 | 1.2 | -32.7
CCN(c1ccccc1)S(=O)(=O)c1ccc(OC)c(NS(=O)(=O)c2cccs2)c1 | 17.6 | -11.8
COc1cc(OC)c(C2N(c3ccc(Cl)cc3)C(=O)C3CCCN32)cc1OC (stereo not given) | 13.9 | -33.7
Cc1ccc(C)c(N2N=C(C(=O)Nc3ccc(S(=O)(=O)N4CCCC4)cc3)CCC2=O)c1 | 11.6 | 2.9
COC(=O)CSc1nc2ccc(N)cc2s1 | 26.3 | -7.0
CCOC(=O)N1CCC(Nc2nc(OC)nc(OC)n2)CC1 | 13.1 | -42.8
CC(=O)c1cccc(NC(=O)c2cnccn2)c1 | 5.8 | -19.8
Cc1cccc(N(Cc2ccccc2)C(=O)CSC(C)C(=O)Nc2cc(C)on2)c1 (stereo not given) | 43.1 | -21.3
COc1ccc(CNCC(=O)Nc2ccccc2-n2cccc2)cc1 | 14.3 | -13.4
